AID504770 – E. coli YBA685 growth inhibition, screen for V. cholerae RctB inhibitors. E. coli YBA685 rctB-dependent plasmid, OD600 growth, 3 h; stronger effect = lower value. z-score (concentration not given with the values). 130,000 compounds, 0.27% hits. AID 504770;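 active = z-score under -2 on both plates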;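 note: wells of about 30 µL received 100 nL stock; score is relative to mean and SD of the test wells; the first replicate is given; strong numbers were not always called active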
CapD inh – blocks the Bacillus anthracis CapD enzyme; purified CapD enzyme, fluorescence intensity read-out; stronger effect = lower value; some hits fall short of the stated cut; z-score (test concentration not listed); 140,000 compounds, 0.23% hits; AID 492967;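 active = z-score under -4 in either of two replicates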;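 note: stock transfer was 100 nL into about 40 µL; score is relative to mean and spread of the plate; one replicate is shown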
* marks the source's active call; other numbers are inactive results; i = inactive; nt = no result given. Not all compounds are listed; count on the stated rates, not on these rows.

Order of results – AID504770, CapD inh
CC(Oc1ccccc1)C(=O)NCCn1ccc2ccccc21 (configuration not stated)
 : 0.4, -0.45
CC12CCC(=O)N1C(C(=O)OCc1cc(=O)n3cc(Br)ccc3n1)CS2 (configuration not stated)
 : -0.6, nt
CCCN(CCC)c1ncnc2nc[nH]c12
 : 0.15, -0.33
O=C(COC(=O)CSc1n[nH]c(-c2ccccc2)n1)NC1CCCCC1
 : 0.9, 0.21
Cc1onc(-c2c(F)cccc2Cl)c1C(=O)NCCNc1ccc(C(F)(F)F)cc1[N+](=O)[O-]
 : nt, -0.42
COc1ccc(OC)c(/C=C2/SC(=Nc3ccc(C)cc3)NC2=O)c1
 : nt, -0.07
c1ccc(CN2CCN(Cc3ccccc3)CC2)cc1
 : 2.5, -0.41
O=C(NCC1CCCO1)c1ccc(N2CCSc3ncccc32)s1 (configuration not stated)
 : 0.65, 4.7
CCOC(=O)N1CCN(Cc2cc(Cl)c3cccnc3c2O)CC1
 : -0.75, -0.36
O=C(c1nn2c(c1Cl)NC(c1cccs1)CC2C(F)(F)F)N1CCN(c2ccc(F)cc2)CC1 (configuration not stated)
 : nt, 0.56
Cc1cc(CNCc2ccc(CN(C)C)cc2)c(C)n1CC(C)C
 : 0, nt
Cc1cc(=O)n2ncnc2n1CC(=O)N/N=C/c1ccc(Cl)cc1
 : 0.7, 0.92
CCN(CC)C(=O)N1CCc2c(F)c(F)c(F)c(F)c21
 : nt, -0.35
CN1C(=O)N(C)C(O)C1O (configuration not stated)
 : 2, nt
COc1ccc(NC(=O)c2c[nH]n3c(=O)cc(C4CCN(C(=O)OC(C)(C)C)CC4)nc23)cc1Cl
 : -0.55, 0.05
NC(=O)c1ncc(C(F)(F)F)cc1SCc1ccc(Cl)cc1
 : -1.4, -0.49
CCC1SC(=S)N(CC(=O)O)C1=O (configuration not stated)
 : 0, nt
CC1CCc2c(sc3ncnc(SCc4ccco4)c23)C1 (configuration not stated)
 : 0.35, nt
O=S(=O)(NC12CC3CC(CC(C3)C1)C2)c1ccc2c(c1)OCCO2
 : -0.95, nt
CC(C)NC(=O)c1cn(C2CCCCC2)c(=O)c2c1c1ccccc1n2C
 : -0.5, 0.63
Cc1ccc(S(=O)(=O)C2CS(=O)(=O)c3ccccc32)cc1 (configuration not stated)
 : 1.4, -0.38
COc1ccc(C2=NN(C(=O)c3ccc(Br)o3)C(c3ccc(C)cc3)C2)cc1 (configuration not stated)
 : nt, 0.38
CC1(C)Cc2c(c(N3CCOCC3)nc3sc4c(Cl)nnnc4c23)CS1
 : -0.45, -0.06
Cc1cc(-n2c(SCC(=O)Nc3nccs3)nc3ccsc3c2=O)ccc1Cl
 : -0.55, -0.14
O=C(O)c1cc(S(=O)(=O)N(Cc2ccco2)S(=O)(=O)c2ccc3c(c2)OCCO3)c(Cl)cc1Cl
 : -0.3, nt
CCOC(=O)c1cc(C)n(CC2CCC(C(=O)Nc3ccccc3)CC2)c1C (configuration not stated)
 : 0, 0.68
COC(=O)CSc1nc(-c2ccccc2)nc2c1CCCC2
 : 0.55, -0.56
CN(C)CC1CCCCC1OC(=O)c1cc2ccccc2o1 (configuration not stated)
 : 0.1, 0.11
Cn1c(=O)c2nc3ccc(N)cc3nc2n(C)c1=O
 : nt, -0.045
O=C(CSc1nnc2n(Cc3ccccc3)c(=O)c3c4c(sc3n12)CCCC4)c1ccccc1
 : nt, -0.41

Next part:
Order of results – AID504770, CapD inh
Cc1cc(C)c2c(=O)n(C(=O)c3cccs3)sc2n1
 : -0.6, -0.5
CCOc1ccc(C2C(N3C(=O)c4c(Cl)c(Cl)c(Cl)c(Cl)c4C3=O)C(=O)N2c2ccc(C)c(Cl)c2)cc1 (configuration not stated)
 : nt, -0.46
COC(=O)c1c(N)n(C)c2nc3ccccc3nc12
 : -0.9, 75
CCOC(=O)c1c(C)oc2ccc(N(C(C)=O)S(=O)(=O)c3ccccc3)cc12
 : nt, -1.9
Cc1ccc(OC(=O)c2ccccc2)c(C(C)(C)C)c1
 : -0.05, 0.34
COc1cccc(C(=O)N2N=C(c3ccncc3)CC2(O)C(F)(F)F)c1 (configuration not stated)
 : nt, 0.54
CC(C)Oc1cc(NS(=O)(=O)c2ccc(Cl)cc2)c(Cl)cc1Cl
 : nt, -0.57
Nc1ccc2nc(CO)[nH]c2c1
 : 1.1, nt
COc1ccccc1CCNC(=O)CSc1ccc(-c2ccco2)nn1
 : 1, -0.31
CCC(C)(N)c1nnnn1-c1cccc(C)c1 (configuration not stated)
 : nt, -0.33
N#Cc1cccc(NC(=O)CCNC(=O)c2ccccc2)c1
 : -1.6, nt
CN(C)c1cccc2c1c(NC(=O)Nc1ccccc1)nn2C
 : -0.8, -0.72
O=C(c1ccc(Cl)cc1)N(CCS(=O)(=O)c1ccc(Cl)cc1)Cc1cccs1
 : 0.35, 0.74
CCN1CCC[C@H]1CNC(=O)c1c(OC)ccc(Br)c1OC
 : nt, -0.26
O=C(OCc1cc(=O)oc2cc(O)ccc12)C1CCN(S(=O)(=O)c2ccccc2)CC1
 : 1.5, nt
CC1(C)Cc2c(c(N3CCOCC3)nc3sc(C#N)c(N)c23)CO1
 : -0.3, 5.4
COC(=O)c1c(C)[nH]c(C)c1/C=C(\C#N)S(=O)(=O)c1ccc(Cl)cc1
 : -1.4, -1.4
NC(=O)CSCC(=O)Nc1ccccc1
 : -1, -0.64
CCCC1c2ccsc2CCN1C(=S)NC (configuration not stated)
 : -0.05, -0.85
CC(C)CC(C(N)=O)C1=NC(C)(C)Cc2ccccc21 (configuration not stated)
 : -0.35, -1.3
Cc1c(-c2cccc(Cl)c2)nc2ccccc2c1C(=O)N1CC(C)OC(C)C1 (configuration not stated)
 : -0.6, 0.33
Cc1ccccc1CCOC(=O)NNC(=O)c1ccc(N(C)C)cc1
 : nt, 0.15
Cc1ccc2c(CSc3nnc(C4CC4)n3N)cc(=O)oc2c1
 : 1, nt
CCOC(=O)c1cc(C#N)c(N2CCNCC2)nc1C(F)(F)F
 : 0.15, 20
CCOC(=O)CN1C(=O)S/C(=C/c2cc(C)n(-c3cc(C)ccn3)c2C)C1=O
 : -0.1, -1.6
COc1ccc(NC(=O)C(NC(C)=O)C(=O)NCc2ccccc2)cc1 (configuration not stated)
 : nt, -0.15
CCOC(=O)c1c(NC(=O)C(C)Sc2nnc(CNC(=O)c3ccccc3F)n2C)sc2c1CCCCC2 (configuration not stated)
 : nt, -0.6
CCOC(=O)c1c(NC(=O)c2cc(OC)c(OC)c(OC)c2)sc(C(=O)Nc2ccccc2C(F)(F)F)c1C
 : nt, -0.79
C=CCSc1ncc(C(=O)OCC)c(N)n1
 : 0.9, -0.02
O=C(Nc1ccccn1)c1cccc(N2C(=O)CCC2=O)c1
 : -0.15, 1

The last 5 entries of the part above come first, to join the parts:
Order of results – AID504770, CapD inh
COc1ccc(NC(=O)C(NC(C)=O)C(=O)NCc2ccccc2)cc1 (configuration not stated)
 : nt, -0.15
CCOC(=O)c1c(NC(=O)C(C)Sc2nnc(CNC(=O)c3ccccc3F)n2C)sc2c1CCCCC2 (configuration not stated)
 : nt, -0.6
CCOC(=O)c1c(NC(=O)c2cc(OC)c(OC)c(OC)c2)sc(C(=O)Nc2ccccc2C(F)(F)F)c1C
 : nt, -0.79
C=CCSc1ncc(C(=O)OCC)c(N)n1
 : 0.9, -0.02
O=C(Nc1ccccn1)c1cccc(N2C(=O)CCC2=O)c1
 : -0.15, 1
O=C(CSc1nnc(Cc2ccccc2)n1Cc1ccccc1)Nc1nccs1
 : 0.3, -0.73
CCOC(=O)CSc1nc2sc3c(c2c(=O)n1-c1ccc(OC)cc1)CC(C)(C)OC3
 : nt, -0.05
CCOC(=O)N1CCN(C(=O)CN(c2ccc(Cl)c(C(F)(F)F)c2)S(C)(=O)=O)CC1
 : -1.1, -0.05
Cc1ccc2cccc(OC(=O)c3cccnc3Oc3ccccc3)c2n1
 : -0.75, -0.57
CC1Cc2ccccc2N1C(=O)CN(Cc1ccco1)S(=O)(=O)/C=C/c1ccccc1 (configuration not stated)
 : -0.6, nt
C=C1C(C(=O)Nc2ccc(OC)cc2)C1C(=O)Nc1ccc(OC)cc1 (configuration not stated)
 : -0.1, 0.18
COCCOC(=O)c1c(C)oc2cc(Br)c(OC(=O)c3ccc(OC)c(OC)c3)cc12
 : -0.8, 0.85
N#Cc1ccc(OCc2ccc(C(F)(F)F)cc2)c(Cl)c1
 : 0.15, 9.7
COc1ccccc1CC(=O)NC1CCN(Cc2ccccc2)CC1
 : nt, 0.34
Cc1ccc(NCC(=O)N2CCN(c3ncccn3)CC2)cc1
 : -0.4, nt
CCO/C=C1\SC(=S)N(CCc2ccccc2)C1=O
 : nt, -0.23
CCC(C)Sc1nc2c(cnn2-c2ccccc2)c(=O)[nH]1 (configuration not stated)
 : -1.4, 0.005
O=C(NCCCN1CCCC1=O)c1ccc2c(c1)NC(=O)c1ccccc1S2
 : 1.5, -0.63
Cc1cccc(C(N)CC(=O)O)c1 (configuration not stated)
 : 0.05, 0.2
CCn1c(=O)cc(N2CCN(c3ccccc3)CC2)[nH]c1=O
 : 1.1, 2.9
O=C(O)C12C3CCCC1C32c1ccccc1 (configuration not stated)
 : 0.35, nt
O=c1[nH]c(CN2CCCC2)nc2c1C1(CCCC1)Cc1ccccc1-2
 : nt, 0.14
Cc1cccc(NC(=O)C(F)(F)C(F)(F)C(F)(F)F)n1
 : -0.7, nt
COCCNC(=O)c1sc2ncnc(N(C)c3ccccc3)c2c1C
 : nt, 0.94
Cc1ccc(/C=C2\C(=O)N(c3ccccc3)c3ccccc32)o1
 : -0.3, nt
COC(=O)c1cc(-c2ccccc2)n(C)c1C
 : 0.85, -0.45
CCOC(=O)COc1ccc2ccc(=O)oc2c1
 : -1.3, 70
COc1ccc(CNc2nc(-c3ccc(OC)cc3)no2)cc1
 : -0.85, -0.41
N#CCSc1nc(N)cc(N)n1
 : -0.25, nt
C/C(=N\NC(=O)c1ccccc1NS(=O)(=O)c1cccs1)c1ccco1
 : -0.45, nt
CCSCCOC(=O)C1=C(C)NC2=C(C(=O)CC(c3ccc(OC)cc3)C2)C1c1ccc([N+](=O)[O-])cc1 (configuration not stated)
 : nt, -0.67
O=C(O)COc1ncnc2ccccc12
 : 0.8, nt
O=[N+]([O-])c1ccc2c(c1)Cc1cccnc1-2
 : nt, 0.14
CCc1ccc(C(C2C(=O)CC(C)(C)CC2=O)C2C(=O)CC(C)(C)CC2=O)s1
 : -0.3, -1
O=C1C2=C(Nc3ccccc3SC2c2cccs2)c2ccccc21 (configuration not stated)
 : nt, 0.33

Molecules listed so far that contain a cyano group, in the order listed:
Order of results – AID504770, CapD inh
N#Cc1cccc(NC(=O)CCNC(=O)c2ccccc2)c1
 : -1.6, nt
CC1(C)Cc2c(c(N3CCOCC3)nc3sc(C#N)c(N)c23)CO1
 : -0.3, 5.4
COC(=O)c1c(C)[nH]c(C)c1/C=C(\C#N)S(=O)(=O)c1ccc(Cl)cc1
 : -1.4, -1.4
CCOC(=O)c1cc(C#N)c(N2CCNCC2)nc1C(F)(F)F
 : 0.15, 20
N#Cc1ccc(OCc2ccc(C(F)(F)F)cc2)c(Cl)c1
 : 0.15, 9.7
N#CCSc1nc(N)cc(N)n1
 : -0.25, nt

(cont.)
Order of results – AID504770, CapD inh
CCC(C(=O)N1CCCC1)n1nc(C)c2sc3ccccc3c2c1=O (configuration not stated)
 : -1.5, -0.14
CCOC(=O)c1c(CN2CCN(Cc3ccccc3)CC2)n(C)c2cc(Br)c(OC)cc12
 : nt, 0.45
COc1cccc(C(=O)N2NC(=O)C=CC2=C(C#N)C#N)c1
 : 0.25, -0.24
COc1ccc(CNC(=O)c2c(-c3ccccc3Cl)noc2C)cc1Cl
 : nt, -0.55
O=C(O)c1oc2ccccc2c1COc1ccccc1
 : -0.05, -0.17
CCOC(=O)CSc1ncnc2nc[nH]c12
 : -1, i
COc1ccc(C(O)(C(=O)NNc2cccc(Cl)c2)c2ccc(OC)cc2)cc1
 : nt, -0.3
Cc1ccc(C(=O)N2CCN(S(=O)(=O)c3cccc(Br)c3)CC2)cc1
 : nt, 0.41
CC1=C/C(=N\Nc2ccc(C(F)(F)F)cn2)CC(C)(C)C1
 : -0.85, nt
Cn1c(SCC(=O)NCc2ccccc2)nnc1-c1ccc2ncccc2c1
 : -0.85, 0.05
FC(F)Oc1ccc(NC(=S)NNc2ccc(Cl)nn2)cc1
 : 0.8, nt
CCN(CC)C(=O)Oc1cc(COC)nc(-c2ccccc2)n1
 : -3*, -0.43
Cc1nc(C(=O)Nc2ccc(Cl)cc2Cl)nn1-c1ccc(F)cc1
 : nt, -0.23
CC(=O)N[C@H](C(=O)O)C(C)C
 : -1.1, nt
O=C(Nc1ccc2[nH]ncc2c1)C1CCC1
 : 1.2, 2.5
CC(C)Cn1c(=O)n(C)c(=O)c2[nH]cnc21
 : nt, 0.14
Cc1ccc(C)c(C(=O)N(CCC#N)Cc2cccnc2)c1
 : 0.4, 0.3
O=C1/C(=N\OCc2ccc(Cl)cc2Cl)c2ccccc2N1c1ccccc1
 : nt, -0.47
CC1(C)/C(=N\O)[C@]2(C)CCC1C2
 : nt, -0.34
CN(C(=O)Nc1ccc(Cl)cc1)C1CC2C=CC1C2 (configuration not stated)
 : -0.3, -0.33
CCOC(=O)C1=C(C)N=c2s/c(=C\c3cccc(Br)c3)c(=O)n2C1c1ccc2c(c1)OCO2 (configuration not stated)
 : nt, -0.08
C=CCN1C(=O)/C(=c2\sc3n(c2=O)C(c2ccc(OC)c(OC)c2)C(C(=O)OCC)=C(C)N=3)c2ccccc21 (configuration not stated)
 : nt, -0.16
COC(=O)c1ccc(Nc2nc(-c3ccccc3)nc3ccccc23)cc1
 : nt, 71
CC(c1ccccc1)N1CSC(=S)N(C(C)c2ccccc2)C1 (configuration not stated)
 : nt, 0
CC(=O)OCC1OC(OC(C)=O)C(O)C(OC(C)=O)C1OC(C)=O (configuration not stated)
 : -0.25, 0.41
CC(CCc1ccco1)NC(=O)c1cccc2c1C(=O)N(C1CCCCC1)C2 (configuration not stated)
 : -0.5, 4.9
